Compound activity deposited in PubChem BioAssay by several laboratories.
Bfl-1 A1 inh = inhibitors of the anti-apoptotic protein A1, read as caspase activation. caspase activation, % (no concentration beside the values). MEF A1-2A-BIM cells, Caspase-Glo 3/7 luminescence, 3 h; percent of clofoctol response, vehicle zero. 330,000 compounds, 0.066% hits;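 active = over half of replicate activation scores above 10%, or exactly half above 10 with the replicate mean above 10; inconclusive = replicate mean below 10 yet half the replicates above 10; inactive = over half of replicates below 10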;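 also: wells of about 30 µL received 50 nL stock; many hits fall short of the cut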
UCH37 inh = blocks the human deubiquitinase UCH37; purified proteasome/UCH37, Ub-AMC cleavage fluorescence; inhibition, % (concentration not given with the values); 330,000 compounds, 0.33% hits; AID 588478;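 active = mean of two replicates above 20%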;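 also: 0% = compound-free wells with enzyme and 100% = wells lacking proteasome; stock transfer was 100 nL into about 20 µL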
Target sequence (Q9Y5K5 whole entry, looked up): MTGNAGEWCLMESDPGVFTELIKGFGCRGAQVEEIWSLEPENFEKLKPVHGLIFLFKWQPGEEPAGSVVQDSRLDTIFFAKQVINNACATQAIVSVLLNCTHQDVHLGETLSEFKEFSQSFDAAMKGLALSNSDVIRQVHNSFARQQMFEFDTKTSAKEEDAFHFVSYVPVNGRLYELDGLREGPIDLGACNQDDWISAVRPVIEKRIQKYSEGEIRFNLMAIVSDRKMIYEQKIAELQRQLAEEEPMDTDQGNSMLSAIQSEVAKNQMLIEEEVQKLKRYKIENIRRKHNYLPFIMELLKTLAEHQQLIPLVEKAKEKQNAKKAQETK
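Assay system: Proteasome-bound UCH37. Buffer or medium: pH 7.4 Tris-HCl (50 mM) with ovalbumin, ATP-MgCl2, DTT. Incubation: 30 min preincubation with enzyme, 25 min cleavage at room temperature. Measured by: fluorescence, ex 355 nm, em 460 nm. Read-out basis: percent inhibition. Control set: wells without proteasome as full block, compound-free enzyme plus substrate as uninhibited.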
T cruzi repl = blocks replication of Trypanosoma cruzi. T. cruzi beta-gal in NIH3T3, luminescence, 90 h. inhibition, % (test concentration not listed). 300,000 compounds, 1.4% hits;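 active = mean inhibition across valid replicates above about 55%, limit read from the data; inconclusive = mean below that limit but half or more replicates reach it; inactive = mean below it, under half of replicates reach it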;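 also: signal also drops with host cell toxicity which is not excluded here; 0% = plate median of DMSO wells and 100% = zero luminescence signal; higher percent means less beta-gal luminescence so fewer parasites; stock transfer was 50 nL into about 50 µL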
E coli growth = blocks Escherichia coli growth; OD600, 23 h; stronger effect = lower value; 330,000 compounds, 0.21% hits; OD600 absorbance (test concentration not listed);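 active = OD600 absorbance below the run mean of sample wells minus 3.6 SD, in any replicate, cut at about 0.56 in these data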;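 also: stock transfer was 300 nL into about 60 µL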
rRNA inh HTS = inhibitors of bacterial rRNA selective over humanized ribosomes; E. coli WT GFP vs humanized-ribosome RFP mutants, fluorescence, 24 h; stronger effect = lower value; DMSO median 0, no signal -100; GFP signal change (wild-type ribosome), % (test concentration not listed); 350,000 compounds, 1.6% hits; AID 720706;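 active = significant combined selectivity score with lowered wild-type GFP, culture density cut under 30%, mutant RFP and density less affected; inactive = any of these conditions unmet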; also: one replicate is shown; some compounds called inactive have numbers as strong as hits
Beta cell apopt = beta cell apoptosis inhibition | INS-1E cytokine-induced death, ATP luminescence, 48 h; percent of positive-control rescue, neutral wells zero | 300,000 compounds, 0.8% hits | protection from apoptosis, % (no concentration beside the values);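 active = all replicates at 75% or more, or half of them and the mean; inconclusive = half reach 75% but not the mean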;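 also: 0% = cytokine-treated negative control wells and 100% = positive control rescue; higher means more ATP so stronger rescue from cytokine killing; wells of about 40 µL received 100 nL stock; the first replicate is given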
FGF22 binding = shifts melting point of recombinant human FGF22; 340,000 compounds, 1.5% hits; Q9HCT0; recombinant FGF22 thermal shift, SYPRO orange fluorescence; percent of sucrose octasulfate shift, DMSO zero; calls only at 9.99 µM;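 active = melting point raised past a set limit in the mean and every replicate; inconclusive = no clear call; three in four hits are not shown here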
Target sequence (Q9HCT0 whole entry, looked up): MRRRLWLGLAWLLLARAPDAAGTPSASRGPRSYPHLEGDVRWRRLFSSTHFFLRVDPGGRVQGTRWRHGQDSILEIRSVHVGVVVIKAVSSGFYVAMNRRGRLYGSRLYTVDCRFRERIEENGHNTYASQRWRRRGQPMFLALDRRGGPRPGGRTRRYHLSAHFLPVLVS
MLL AF4-AF9 inh = MLL-AF4/AF9 protein interaction inhibition | P42568 | AlphaScreen, biotin-AF4 peptide binding to FLAG-AF9 | inhibition, % at 10 µM | 350,000 compounds, 0.47% hits;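 active = every replicate reaching a set inhibition limit, whatever the replicate mean, cut at about 25% in these data; inconclusive = mean inhibition reaches that limit but some replicates miss it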;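 also: 0% = plate neutral control median and 100% = total signal loss; the record names both 10 and 1 µM as test concentration; the first replicate is given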
Target sequence (P42568 whole entry, looked up): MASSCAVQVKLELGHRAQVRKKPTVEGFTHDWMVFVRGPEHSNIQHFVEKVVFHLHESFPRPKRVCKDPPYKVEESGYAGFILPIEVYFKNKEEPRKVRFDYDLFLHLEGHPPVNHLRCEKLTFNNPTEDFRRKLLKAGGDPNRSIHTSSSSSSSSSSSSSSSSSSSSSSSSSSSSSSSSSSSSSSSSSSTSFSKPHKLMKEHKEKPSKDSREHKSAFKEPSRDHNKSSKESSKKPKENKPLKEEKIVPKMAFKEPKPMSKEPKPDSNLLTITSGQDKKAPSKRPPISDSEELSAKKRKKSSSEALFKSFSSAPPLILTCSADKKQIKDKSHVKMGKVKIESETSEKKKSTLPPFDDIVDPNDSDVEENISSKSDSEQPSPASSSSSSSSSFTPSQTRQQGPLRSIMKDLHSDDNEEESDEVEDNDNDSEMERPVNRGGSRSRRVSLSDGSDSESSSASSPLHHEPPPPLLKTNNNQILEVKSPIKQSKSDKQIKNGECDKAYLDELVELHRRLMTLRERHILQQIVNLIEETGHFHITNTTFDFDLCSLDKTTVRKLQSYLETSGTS
rRNA inh HTS OD600 = further read-out of rRNA inh HTS, marked with its call; OD600 change, %; measured here: OD600 growth;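 optical density of the mix in the first replicate; 0 = DMSO median and -100 = no signal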
rRNA inh HTS RFP = further read-out of rRNA inh HTS, marked with its call; RFP signal change, %; measured here: RFP humanized mutant strains;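 first replicate; 0 = DMSO median and -100 = no signal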
* = called active by the depositor; i = inactive; ? = inconclusive; · = not tested or not shown. This is a subset; rates above refer to the full screens.

SMILES	Bfl-1 A1 inh	UCH37 inh	T cruzi repl	E coli growth	rRNA inh HTS	rRNA inh HTS OD600	rRNA inh HTS RFP	Beta cell apopt	FGF22 binding	MLL AF4-AF9 inh
CCOc1ccc(C(C)(C)C)cc1S(=O)(=O)N1CC(C)OC(C)C1 (stereo not given)	1.4	4.2	16	0.74	·	·	·	1	·	·
Cc1cc2nc(Sc3c([N+](=O)[O-])nc(C)n3Cc3ccccc3)[nH]c2cc1C	0.4	4.2	-7	0.66	4	12	7.9	-8	i	11
Cc1ccc(NC(=O)CSc2nnc(-c3ccoc3C)n2CCCN(C)C)cc1Cl	0.2	6.4	1	0.66	2	6	0.8	1	i	4.8
Cc1ccccc1-c1oc(C)c(C)[n+]1[O-]	-0.4	2.2	-9	0.68	9	5	-1.2	-13	i	0.9
CCCCNC(=O)COC(=O)c1ccc(F)cc1Cl	-0.4	5.0	-7	0.68	12	20	5.2	-14	·	-0.5
C=CCn1c(SCC(=O)Nc2cccc(S(=O)(=O)N(C)c3ccccc3)c2)nnc1C1CC1	-0.1	2.0	4	0.71	-2	-3	2.8	-3	i	-1.7
O=C(CC1OC(=O)c2ccccc21)Nc1ccc(Cl)c(S(=O)(=O)N2CCCCC2)c1 (stereo not given)	0.0	4.4	-2	0.69	-25	-31	-6.2	1	i	-0.5
COc1ccc(N2C(=O)C(Cl)=C(N(CCO)Cc3ccccc3)C2=O)cc1	0.9	3.1	0	0.73	·	·	·	-15	·	·
COc1ccc(C(=O)N/N=C/c2c(C)nn(-c3ccccc3)c2OC)cc1	0.3	·	-1	·	-11	-1	-2.8	·	i	2.9
CNC(=O)c1cc(Cl)c(OC)c(OC)c1	0.1	1.1	-4	0.71	·	·	·	-9	i	0.5
CCCn1c(=O)c2c(ncn2C)n(CCC)c1=O	-0.1	0.6	·	0.66	·	·	·	-11	i	-5.6
COc1ccc(S(=O)(=O)NC2CC2)cc1-n1cnnn1	0.0	-0.8	-7	0.65	6	9	1.7	-5	i	-3.2
Cc1nc2ccccc2c(=O)n1NC(=O)c1c(F)cccc1F	0.2	-2.0	-16	0.68	-17	-18	-3.3	-11	i	-2.9
Cc1cccc(N2CCN(Cc3nc(-c4ccccc4Cl)oc3C)CC2)n1	0.5	3.6	2	0.71	·	·	·	0	·	·
COc1cc(SC)ccc1C(=O)Nc1ccc(S(=O)(=O)N2CCCC2)cc1	0.2	-80	-11	0.71	·	·	·	11	·	·
COc1ccc(C(=O)Nc2ccc3nc(N4CCN(C)CC4)cc(C)c3c2)c(OC)c1	0.6	-7.6	43	0.67	13	-13	4.5	-1	i	-11
CCCc1[nH]c(=O)c(C#N)c2c1COC(C)(C)C2	0.1	-22	-6	0.71	·	·	·	11	·	·
CC(C)OCCCNC(=O)c1ccc(NS(C)(=O)=O)cc1	0.2	4.0	4	0.7	·	·	·	2	·	·
CCc1cc(C(=O)N2CCN(S(=O)(=O)c3ccc(Cl)cc3)CC2)sc1C	0.6	1.8	·	0.69	4	12	1.6	-1	i	-8.8
CC(C)CN(C(=O)c1ccc(S(=O)(=O)N2CCOCC2)cc1)C1CCS(=O)(=O)C1 (stereo not given)	0.4	4.2	-1	0.64	3	7	-4.0	·	i	1.6
COc1cccc(N(CC(=O)N2CCN(c3ccccc3OC)CC2)S(C)(=O)=O)c1	0.3	4.4	7	0.69	·	·	·	-2	·	·
O=C(COc1cccc2c1CCNC2=O)Nc1ccc(Cl)cc1	·	1.4	13	0.71	17	21	0.5	·	i	0.7
O=C(O)/C=C/c1ccc(-n2ccnc2)cc1	0.0	4.6	-6	0.72	-17	-4	-3.4	-3	i	-0.7
CCCOC1CCCN(Cc2nc(-c3ccc(C(=O)OC)cc3)no2)C1 (stereo not given)	-0.2	0.4	29	0.71	-7	-14	-4.0	-6	i	-0.1

Of the compounds above, 2 have an NH in an aromatic ring.
SMILES	Bfl-1 A1 inh	UCH37 inh	T cruzi repl	E coli growth	rRNA inh HTS	rRNA inh HTS OD600	rRNA inh HTS RFP	Beta cell apopt	FGF22 binding	MLL AF4-AF9 inh
Cc1cc2nc(Sc3c([N+](=O)[O-])nc(C)n3Cc3ccccc3)[nH]c2cc1C	0.4	4.2	-7	0.66	4	12	7.9	-8	i	11
CCCc1[nH]c(=O)c(C#N)c2c1COC(C)(C)C2	0.1	-22	-6	0.71	·	·	·	11	·	·

(more compounds)
SMILES	Bfl-1 A1 inh	UCH37 inh	T cruzi repl	E coli growth	rRNA inh HTS	rRNA inh HTS OD600	rRNA inh HTS RFP	Beta cell apopt	FGF22 binding	MLL AF4-AF9 inh
O=C(C(Cc1ccccc1)N1C(=O)C2C3CCC(C3)C2C1=O)N1CCCCC1 (stereo not given)	0.3	0.5	-6	0.69	2	-1	-1.3	·	·	-12
C=CCNC(=O)C(=O)NCCCN1CCOCC1	0.8	-2.0	1	0.7	16	16	-1.2	·	i	-3.3
COc1ccc(-c2nc(C#N)c(N3CCCCC3)o2)cc1	-0.4	-190	6	0.68	-27	-48	-10	-6	i	4.1
O=C(N=c1ccn(-c2nc3ccccc3nc2NS(=O)(=O)c2ccc(Cl)cc2)cc1)c1cccs1	0.9	-34	-5	0.75	21	25	-4.6	5	i	-1.1
O=C(CN1C(=O)NC2(CCCC2)C1=O)Nc1cccc(Cl)c1Cl	0.3	1.5	-5	0.69	2	2	0.2	-7	i	-5.1
Cc1ccc(NC(NC(=O)c2cccnc2)C(Cl)(Cl)Cl)cc1 (stereo not given)	-0.2	3.2	-8	0.68	-6	-14	-7.4	1	i	3.8
COc1ccnc(N2CCN(c3ccc(Cl)cc3)CC2)c1C#N	-0.4	1.4	-2	0.72	8	4	0.6	·	i	-0.8
CCOC(=O)Cc1c(C)c2c(C)nn(-c3ccccc3)c2oc1=O	-0.6	-14	-1	0.73	·	·	·	-4	·	·
Cc1ccc(C(=O)N(CCCN(C)C)c2nc3ccc(Cl)cc3s2)cc1C	0.0	3.2	70*	0.64	-57	-81	-26	-2	i	22
COc1ccc(N(CC(=O)NCCc2ccc(OC)c(OC)c2)S(=O)(=O)c2c(C)noc2C)cc1	-0.2	0.0	10	0.64	-1	-11	-2.3	-6	i	0.7
O=C(c1ccc(S(=O)(=O)N2CCCC2)cc1)N1CCN(c2ccccc2)CC1	0.2	4.9	2	0.66	0	0	3.5	0	i	-0.4
COc1ccc(N2CCN(C(=O)c3ccc(CS(=O)(=O)c4ccc(Br)cc4)o3)CC2)cc1	0.0	-0.9	7	0.71	8	15	0.0	-3	i	-11
O=C1C=C(Nc2ccc(O)cc2)CC(c2ccco2)C1 (stereo not given)	-0.5	7.7	-1	0.67	·	·	·	-6	·	·
Cn1c(=O)cc(OCCCC(=O)N2CCN(c3ccccn3)CC2)c2ccccc21	-0.3	1.0	10	0.68	·	·	·	4	·	·
CSc1ccc(S(=O)(=O)Nc2ccc3c4c(cccc24)CC3)cc1	0.1	1.1	-6	0.74	·	·	·	8	·	·
COc1ccc(OC)c(/C=N\NC(=O)c2ccc(COc3ccc(C)cc3[N+](=O)[O-])o2)c1	-0.9	·	14	·	21	7	2.2	-9	i	-3.5
O=c1cc(CSc2nnc(Nc3ccccc3)s2)nc2sccn12	?	-0.6	·	0.68	1	1	3.0	-1	·	·
Cc1cc([N+](=O)[O-])ccc1-c1ccc(C2Nc3ccccc3C(=O)N2O)o1 (stereo not given)	-0.3	5.1	39	0.59	17	6	-5.5	70	i	10
COc1cc(NC(=O)c2ccc(C(=O)c3ccccc3)cc2)cc(OC)c1OC	0.5	3.1	8	0.7	8	5	0.3	·	i	1.2
N#Cc1c(-c2ccc(F)cc2)nc2n(c1=O)CCS2	0.5	1.5	-14	0.69	·	·	·	-1	·	·
COc1ccccc1C(=O)N/C(=C/c1ccccc1)C(=O)Nc1ccc(C(=O)O)cc1	-0.5	4.7	-9	·	-7	-16	-3.7	-1	·	0.4
Cc1nn(C(C)C(=O)NCCc2ccco2)c(=O)c2nn(-c3ccccc3)c(C)c12 (stereo not given)	0.2	0.0	34	0.69	1	8	-1.0	-7	i	-0.3
COC(=O)c1ccc(OC(=O)c2ccncc2)cc1O	-0.7	1.1	-9	0.66	7	4	-3.0	-15	i	-0.4
Cc1ccc(C(=O)N2CCN(c3ccccc3O)CC2)cc1S(=O)(=O)N1CCCCC1	-0.5	2.0	28	0.67	-56	-80	-16	-4	i	-25
COc1ccc(-n2c(C)cc(C(=O)COc3ccc(C)nc3[N+](=O)[O-])c2C)cc1	0.8	2.0	-7	0.73	·	·	·	2	·	·
Cc1ccc(S(=O)(=O)N(C)C)cc1NC(=O)C1CCCCN1S(=O)(=O)c1ccccc1 (stereo not given)	1.2	-0.3	·	0.61	-2	-14	-3.6	5	i	2.5
O=C(OCc1cccc(Cl)c1)c1cc([N+](=O)[O-])ccc1N1CCOCC1	-0.3	4.6	11	0.71	-17	-10	-3.1	-1	i	5.6
CCNC(=O)C(=O)N1CCC2(CC1)OCCN2S(=O)(=O)c1ccc(C)cc1	0.1	0.8	-9	0.65	-1	-4	-0.9	-5	·	-9.1
COc1cccc(NC(=O)CN(C)C(=O)c2cc(S(=O)(=O)Nc3ccccc3OC)ccc2C)c1	·	1.1	·	0.69	1	-1	0.8	·	i	-1.0
Cc1ccc(-c2nc(CN3CCN(C(=O)C4CCCO4)CC3)cs2)cc1 (stereo not given)	0.2	2.0	-4	0.69	5	1	3.3	-2	i	1.0
Cc1[nH]n(-c2ccc(Cl)cc2)c(=O)c1C=NC12CN3CN(CN(C3)C1)C2	-1.5	6.7	-9	0.7	14	6	3.7	2	i	3.2
CCn1cc(C(=O)Nc2ccc(Cl)cc2Cl)cn1	0.3	2.4	-10	0.67	-9	7	-3.2	-4	·	-5.0
CCOC(=O)C1CCN(C(=O)Cn2cnc3sc(C)c(S(=O)(=O)N4CCCCC4)c3c2=O)CC1	0.5	1.0	12	0.66	0	-4	-1.7	0	i	-8.6
CC1=C(C(=O)OCc2ccc3c(c2)OCO3)C(c2ccc(Cl)cc2)NC(=O)N1 (stereo not given)	·	6.5	-9	0.71	-19	-14	3.0	·	i	-9.5
CCCNC(=O)c1onc(CSc2ccccc2)c1C(=O)NCCC	-0.3	5.2	-12	0.72	-1	-2	-8.6	3	i	-1.6
CC1(C(=O)NC2CCCC2)CCC(=O)N1Cc1ccc2c(c1)OCO2 (stereo not given)	-1.6	0.4	-10	0.73	·	·	·	-7	·	·
CCN(CC)S(=O)(=O)c1ccc(OC)c(NC(=O)CCc2c(C)noc2C)c1	·	3.1	·	0.68	6	2	-0.3	·	i	-1.1
O=C(Nc1ccc2c(c1)nc1n2CCCCC1)c1cc(S(=O)(=O)N2CCOCC2)ccc1Cl	-0.5	-1.9	6	0.72	·	·	·	14	·	·
COc1ccccc1N1C(N)=NC(N)=NC12CCCCC2	0.2	2.8	7	0.68	7	10	-0.2	-1	i	-0.5
CCOC(=O)c1ccc(NC(=O)c2ccnn2C)cc1	-6.6	3.5	-12	0.64	-9	8	-0.5	-4	i	-1.8
